CtBP-E1A inh: qHTS Assay for Inhibitors of the CtBP/E1A Interaction; CtBP / adenovirus E1A interaction (AlphaScreen); AlphaScreen GST-E1A/His-CtBP binding, 1536-well; hits give low values; control for the full effect not named in the record; activity change, % (test concentration not listed); hit rate 0.49% among 340,000; AID 651724, 2012; in the data active means activity change below about -65%; inconclusive means about -30% to -65%; inactive means above about -30%; note: % is set by controls: 0 for no effect and ±100 for the full control effect; compound concentration not given in the record
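Steps: dispense buffer (Tris pH 8.0, NaCl 300 mM, TCEP 1 mM, BSA, Tween 20); add 5X protein mix (GST-E1A, His-CtBP, 125 nM each); pin 23 nL compound; 2 h at 37 °C, dark; add 5X beads (50 ug/mL); 1 h; read.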
Six1-Eya2 blk: qHTS Assay for Inhibitors of the Six1/Eya2 Interaction; activity change, % (concentration not given with the values); Homeobox protein SIX1 (Homo sapiens) + Protein phosphatase EYA2 (Homo sapiens), …; AlphaScreen GST-Six1/His-Eya2 binding, biochemical; hits give low values; control for the full effect not named in the record; hit rate 0.56% among 360,000; in the data active = activity change below about -65%; inconclusive = about -30% to -65%; inactive = above about -30%; note: % is set by controls: 0 for no effect and ±100 for the full control effect
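Homogeneous AlphaScreen proximity assay pairing GST-Six1 with His-tagged Eya2 (added as 5X mix: 250 nM and 500 nM) in 50 mM Tris pH 8.0, 300 mM NaCl, 1 mM TCEP. Glutathione donor and nickel acceptor beads; 1 h, 37 °C, dark.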
TRPML1 blocker: qHTS for Inhibitors of the Human Mucolipin Transient Receptor Potential 1 (TRPML1). TRPML1-inducible cells, Ca2+ dye fluorescence, FDSS; hits give low values; inhibition of EC80 agonist-evoked calcium signal. activity change, negative = inhibition, % (no concentration beside the values). hit rate 0.02% among 390,000; in the data active means activity change below about -50%; inconclusive means about -30% to -50%; inactive means above about -30%;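 note: stimulus is agonist 54-4 at its EC80 concentration; % is set by controls: 0 for no effect and ±100 for the full control effect; compound concentration not given in the record; the text of the record puts the active cut at -80%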
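Calcium fluorescence in TRPML1-DL cells induced overnight with Tet: a 110 s read after compound pin addition, then a 110 s antagonist read after challenge with 54-4 at 4 uM final (EC80).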
TRPV1 PAM: HTS Assay for Compounds that Act as Potentiators of the Vanilloid Receptor 1. TRPV1-expressing cells, Fluo-8 calcium influx, capsaicin EC20 potentiation; host cell line not named in the record; control for the full effect not named in the record. hit rate 0.02% among 320,000. potentiation, % at 8.33 µM. AID 540277, 2011. Transient receptor potential cation channel subfamily V member 1 (Homo sapiens), Q8NER1; active means potentiation above 80%; inconclusive means 30% to 80%; inactive means below 30%; note: 0% is about no effect
Target sequence (Q8NER1 whole entry, looked up): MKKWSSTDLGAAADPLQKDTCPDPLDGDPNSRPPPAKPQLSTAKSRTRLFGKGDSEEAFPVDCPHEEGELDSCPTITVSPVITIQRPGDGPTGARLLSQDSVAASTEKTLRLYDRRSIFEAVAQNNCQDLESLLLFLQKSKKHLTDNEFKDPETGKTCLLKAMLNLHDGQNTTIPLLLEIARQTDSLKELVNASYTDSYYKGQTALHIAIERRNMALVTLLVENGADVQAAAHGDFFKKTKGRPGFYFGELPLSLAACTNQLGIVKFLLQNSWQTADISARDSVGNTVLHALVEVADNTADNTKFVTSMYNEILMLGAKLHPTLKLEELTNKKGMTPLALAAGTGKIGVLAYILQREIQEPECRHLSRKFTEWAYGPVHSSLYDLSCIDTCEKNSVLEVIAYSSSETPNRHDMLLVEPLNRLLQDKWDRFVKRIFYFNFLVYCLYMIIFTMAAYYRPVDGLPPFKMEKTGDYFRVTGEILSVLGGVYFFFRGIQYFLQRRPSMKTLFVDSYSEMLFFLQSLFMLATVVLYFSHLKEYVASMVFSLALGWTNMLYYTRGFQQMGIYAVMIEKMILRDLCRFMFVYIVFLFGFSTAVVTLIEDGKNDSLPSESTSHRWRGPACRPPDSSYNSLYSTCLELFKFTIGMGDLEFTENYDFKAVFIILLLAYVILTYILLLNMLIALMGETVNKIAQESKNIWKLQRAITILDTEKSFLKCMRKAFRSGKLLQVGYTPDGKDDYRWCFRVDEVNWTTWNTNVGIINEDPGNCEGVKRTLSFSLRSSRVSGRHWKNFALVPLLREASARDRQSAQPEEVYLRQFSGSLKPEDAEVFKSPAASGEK
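Cells expressing TRPV1 were dye-loaded with Fluo-8 and read kinetically: 10 s baseline, 3 min after compound (agonist portion), then 2 min after EC20 capsaicin (allosteric enhancer portion). Calcium-bound dye fluorescence at 480/520 nm.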
D2 PAM: Beta-Arrestin HTS for Positive Allosteric Modulators of the Human D2 Dopamine Receptor: Potentiators. AID 624464, 2012. hit rate 0.23% among 360,000. potentiation, % (concentration not given with the values). D(2) dopamine receptor (Homo sapiens), P14416. DiscoveRx D2 beta-arrestin cells, luminescence, 90 min; 100% = 57 uM dopamine signal; active = potentiation of 50% or more; inconclusive = 30% to 50%; inactive = 30% or less;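 note: compound concentration not given in the record; tested on top of an EC20 dose of dopamine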
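PathHunter beta-arrestin assay in DiscoveRx D2 cells. Compounds were added with an EC20 of dopamine (50 nM final) for 90 min at 37 deg C. Luminescence was read 1 h after detection reagent, with 57 uM dopamine as the EC100 control.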
TRPML1 ag: qHTS for Agonists of the Human Mucolipin Transient Receptor Potential 1 (TRPML1); Mucolipin-1 (Homo sapiens), Q9GZU1; TRPML1-expressing cells, Ca2+ dye fluorescence, FDSS; host cell line not named in the record; reference of the full effect not given here; activation, % (concentration not given with the values); hit rate 0.12% among 410,000; in the data active = activation above about 50%; inconclusive = about 30% to 50%; inactive = below about 30%; note: 0% is about no effect; the text of the record puts the active cut at 80%
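Tetracycline-induced TRPML1-DL cells are seeded and incubated overnight before loading with a no-wash Ca2+ dye and quencher. Agonist activity is taken from the 110 s fluorescence read following compound pin-transfer on an FDSS, before EC80 54-4 challenge.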
* hit, by the source's call; ? = inconclusive; . = no result given.

Values run as follows: CtBP-E1A inh, Six1-Eya2 blk, TRPML1 blocker, TRPV1 PAM, D2 PAM, TRPML1 ag
Nc1nc(Nc2ccccc2)sc1C(=O)c1ccccc1
  -21, ?, 12, 10, -7, 2.7
COc1cc(C(C)=O)ccc1OCC(=O)Nc1ccc(Cl)c(S(=O)(=O)N2CCOCC2)c1
  -13, -14, 9, -1, 6, 3.0
COC(=O)c1ccc2c(=O)n(CCCCCC(=O)NCc3ccc4c(c3)OCO4)c(=O)[nH]c2c1
  2, 0, -11, 9, 2, -0.4
Cc1ccccc1NC(=O)Cc1nc(CN(C)CC(=O)Nc2cccc(F)c2)cs1
  -8, -1, -14, 9, -1, 0.9
NC(=O)CCn1c(C(=O)c2cccc([N+](=O)[O-])c2)c2ccccc2[n+]1[O-]
  0, -2, 8, -12, -6, -0.6
O=C(O)c1ccccc1Sc1c([N+](=O)[O-])cc(C(F)(F)F)cc1[N+](=O)[O-]
  ., -12, -3, -10, 24, 0.0
COC(=O)C1CCCCN1C(=O)c1cccc(OC2CCN(C(=O)C3CC3)CC2)c1 (stereo unspecified)
  11, 1, 1, 13, 27, 1.1
Cc1onc(-c2ccccc2)c1C(=O)NCC(O)c1ccccc1 (stereo unspecified)
  1, 2, -7, ., -5, 0.4
COC(=O)Cc1cc(=O)[nH]c(/N=C(\N)Nc2ccccc2)n1
  8, 2, -14, -1, 3, 0.3
CC(Cc1cccnc1)NC(=O)c1cc(COc2c(F)cccc2F)on1 (stereo unspecified)
  7, 1, 2, 16, -9, 1.3
COc1ccc(CCN(C)C(=O)CSc2nc3ncc(Cl)cc3[nH]2)cc1OC
  -2, 2, 2, 8, 2, 0.1
CC(C(=O)Nc1ccc(C#N)cc1)N1CCN(C(=O)C2CC2)CC1 (stereo unspecified)
  0, -1, 22, -15, -3, -0.5
CC(=O)c1c(C)[nH]c(C(=O)CN2C(=O)NC(C)(c3ccc4c(c3)OCO4)C2=O)c1C (stereo unspecified)
  3, -1, 3, -5, -23, 7.3
O=C(COC(=O)CCSc1ccc(Cl)cc1)NCc1ccccc1Cl
  0, 16, 9, -25, -13, 5.9
OCCC1CN(Cc2cccn2-c2nccs2)CCN1Cc1ccccc1 (stereo unspecified)
  -5, -3, -12, -1, -20, 0.9
Cc1ccccc1OCCC(=O)OCC(=O)NCCc1ccccc1
  -8, 12, -1, -23, 11, -0.3
C/C(CCc1ccc2c(c1)OCO2)=N\N=C1\NC(=O)CC(C(=O)Nc2ccccc2F)S1 (stereo unspecified)
  -7, -8, -3, -1, -5, -0.2
Cc1cc(C(F)(F)F)nn1CC(=O)NCc1ccccc1
  10, 13, -3, -3, -1, -1.0
CCOC(=O)c1nnc(-c2ccccc2)nc1Oc1ccc(Cl)cc1
  3, -1, 2, -2, -40, 2.6
CCCNC(=O)C1(C)CCCN(Cc2ccc3ccccc3c2)C1 (stereo unspecified)
  0, -1, -7, ., -11, 0.2
COc1ccc(/C=C\C(=O)NCc2ccc3c(c2)cc(C)n3C)cc1OC
  -2, -15, 4, 15, -7, 0.6
COc1ccc(N(Cc2cc3cc(OC)ccc3[nH]c2=O)S(C)(=O)=O)cc1
  -2, 10, -6, 6, -29, -0.1
NC(=O)c1c(NC(=O)Cc2cccs2)sc2c1CCC2
  -9, -11, 4, -4, 4, 1.7
CCCCN(C(=O)c1cc(Cl)nc2ccccc12)c1c(N)n(Cc2ccccc2)c(=O)[nH]c1=O
  13, 8, -17, 16, 17, 0.1
O=C(c1cc2ccccc2o1)N1CCCCCC1
  3, 10, 7, 15, -14, -1.2
CCSc1nnc2nc(C)cc(C)n12
  -2, -2, -10, -4, -18, 0.5
COc1ccc(CNCc2ccc([N+](=O)[O-])cc2)cc1OC
  -5, 0, 21, -8, -4, 1.8
O=C(C[N+]1(CC#Cc2ccccc2)CCOCC1)c1ccc(Cl)cc1
  0, -1, 3, -3, -13, -0.2
Cc1ccn(CCSCC(=O)O)n1
  -16, 5, 5, 7, 8, -0.2
CC(=O)N1CCN(C(=O)CCNC(=O)c2ccc(Br)cc2)CC1
  6, -3, 0, ., -1, -0.7
CC(OC(=O)Cc1n[nH]c(=O)c2ccccc12)C(=O)Nc1cc(Cl)cc(Cl)c1 (stereo unspecified)
  0, -9, 36, -14, -4, 3.1
Cc1sc2ncnc(NCc3ccco3)c2c1C
  -20, -11, 23, ?, -3, 1.9
Cc1oc2c(CN3CCCC(C)C3)c(O)ccc2c(=O)c1-c1ccccc1 (stereo unspecified)
  12, 0, 27, -14, -1, -0.8
O=C(NC1CCCCC1)c1ccc(S(=O)(=O)c2ccccc2)cc1
  19, 6, -5, -26, -4, 1.2
COc1ccc(/C=C(/C#N)C(=O)Nc2ccc(C)cc2C)cc1C(=O)O
  -5, ?, 32, ., -3, -0.2
N#C/C(=C\c1ccccc1)C(=O)NNS(=O)(=O)c1ccc(Br)cc1
  7, -10, -1, ., -9, 0.8
C=CC(=O)NC(C)(C)Cc1ccccc1
  -2, 8, -14, 7, 1, -0.4
COc1cccc(NC2=NC3(CCCCC3)N=C(N)N2)c1
  -9, -18, 1, 8, -29, 1.1
CCCCC(=O)Nc1nn(CCC)c2nc3ccccc3cc12
  16, 19, 13, 14, 25, 3.8
Clc1ccc(CNC2CCN(Cc3ccccc3)CC2)cc1
  4, 0, -4, 2, -13, 0.6
COc1cc(OC)cc(-c2cc3ccc(F)cc3cn2)c1
  -3, 12, 38, ., -17, -0.3
O=Cc1ccc(Cl)c(Cl)c1
  5, -1, -4, -1, -11, 0.3
COc1cc([N+](=O)[O-])ccc1NC(=S)NCc1ccccn1
  -6, -15, -8, -3, -26, -0.6
Cc1cc(F)ccc1S(=O)(=O)NCC(c1cccnc1)N1CCc2ccccc21 (stereo unspecified)
  ., -11, -2, 3, -12, 4.1
COc1ccccc1Cn1nnc2c(=O)[nH]c(C3CCN(C(=O)c4ccc(F)cc4)CC3)nc21
  0, 3, -3, -5, -11, -1.0
CCSc1nc2cc(C(=O)OC)ccc2c(=O)n1CC
  6, -1, 47, -5, -12, 0.7
O=C(CCSCc1ccccc1Cl)N1CCN(c2ccccn2)CC1
  -2, -1, 2, 15, 0, 1.1
Cc1noc(C)c1COC(=O)c1cc2c3ccccc3n(C)c2s1
  -1, 1, 11, 4, -18, 0.9
O=C(COC(=O)c1ccccc1Br)Nc1cc(S(=O)(=O)N2CCOCC2)ccc1N1CCCC1
  5, -1, -5, 18, -54, 0.9
O=C(CNc1ccc2ccccc2c1)N/N=C/c1ccccn1
  -6, -10, 4, -3, 0, 4.0
Cc1ccc(C(=O)c2ccc(N3CCOCC3)c(F)c2)cc1
  17, 10, -7, ?, 3, 0.6
CC1CCN(c2c(NCC3CCC(C(=O)NCCc4ccccc4)CC3)c(=O)c2=O)CC1 (stereo unspecified)
  4, 1, 1, -10, -5, -1.0
COc1cc(CN2CCN(C(=O)c3ccccc3F)CC2)cc(OC)c1OC
  ., 0, ., 2, -12, .
CCCCCC(O)(c1ccc(OC)cc1)C(CN1CCOCC1)c1ccccc1 (stereo unspecified)
  -4, 3, 40, 4, -14, 0.6
Cc1noc(C)c1CSc1ccc(Br)cc1
  24, 9, -17, -4, -6, 0.1
COc1cc(OC)cc(-c2c(C#Cc3ccsc3)c3cc(-c4ccccc4OC)ccc3n2C)c1
  6, 20, -3, ., -3, 0.2
CC1(c2cccc(Br)c2)NC(=O)NC1=O (stereo unspecified)
  0, 21, -4, -10, 0, -0.3
Cc1ccc(C(=O)NC2CC3CCC(C2)N3C)cc1 (stereo unspecified)
  ., -1, 0, -12, -13, -0.3
N#CC(c1cccc(Cl)c1)c1ncc(C(F)(F)F)cc1Cl (stereo unspecified)
  -3, 12, 15, 0, -18, 12
CCOc1ccc(C(C)=O)cc1Cn1c(=O)oc2ccccc21
  1, 4, 6, -37, -1, 4.2

Next results follow:
Values run as follows: CtBP-E1A inh, Six1-Eya2 blk, TRPML1 blocker, TRPV1 PAM, D2 PAM, TRPML1 ag
CCOC(=O)N1CCN(C(=O)/C=C/c2ccc(OC)cc2)CC1
  0, 16, ?, 2, 7, 1.2
O=C(Cc1ccccc1)N/N=C/c1ccc(-c2ccc([N+](=O)[O-])cc2)o1
  2, 6, 8, -1, 3, 1.6
O=[N+]([O-])c1cccc(S(=O)(=O)NCc2ccccn2)c1
  1, -6, 8, 20, -2, 0.0
CNC(=O)C1CCC(=O)N1Cc1c[nH]c2ccccc12 (stereo unspecified)
  3, 0, ., ., -5, -0.5
COc1cccc(NC(=O)CSc2ncnc3c2oc2ccccc23)c1
  1, 4, 23, -4, -3, -0.5
Cc1cc2oc(=O)cc(CSc3nc(N)cc(N)n3)c2cc1C(C)C
  -4, -1, -3, -12, 4, 0.1
Cc1cc[n+](CC(=O)c2cc3ccccc3oc2=O)cc1
  2, 2, 5, 12, 4, 0.0
Cc1ccc(CN2CC(N3CC=CC3)CS2(=O)=O)cc1 (stereo unspecified)
  -29, -3, ., ., -4, -0.5
CCN(CC)C(=O)CSc1nnc(-c2ccccn2)n1-c1ccccc1OC
  -7, -4, 0, -1, 3, 0.0
CC(C)C[C@H]1CN(CCCC[C@@H]2CNC(=O)C(=O)N2CCc2ccccc2)C(=O)C(=O)N1CCc1ccccc1
  2, -2, ., ., ., -0.8

Assay outcomes as filed in PubChem.
